Compound activity as filed in PubChem.
FGF22 binding – shifts melting point of recombinant human FGF22. calls only at 9.99 µM. recombinant FGF22 thermal shift, SYPRO orange fluorescence; percent of sucrose octasulfate shift, DMSO zero. AID 651658. actives 1.5% (n = 340,000);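 active means melting point raised past a set limit in the mean and every replicate; three in four hits are not shown here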
Target sequence (Q9HCT0 whole entry, looked up): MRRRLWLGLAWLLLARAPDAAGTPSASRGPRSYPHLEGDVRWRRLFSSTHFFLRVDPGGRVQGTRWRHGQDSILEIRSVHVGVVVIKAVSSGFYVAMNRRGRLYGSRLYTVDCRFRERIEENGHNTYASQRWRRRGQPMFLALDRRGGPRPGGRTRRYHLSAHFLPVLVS
Ecoli rRNA inh – inhibits bacterial ribosomal RNA function over humanized ribosomes; E. coli WT GFP vs humanized-ribosome RFP mutants, fluorescence, 24 h; active compounds read low; DMSO median 0, no signal -100; GFP signal change (wild-type ribosome), % (concentration not given with the values); actives 1.6% (n = 350,000);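 active means significant combined selectivity score with lowered wild-type GFP, culture density cut under 30%, mutant RFP and density less affected; inactive means any of these conditions unmet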; further: one replicate is shown; some compounds called inactive have numbers as strong as hits
Ecoli rRNA inh OD600 – further read-out of Ecoli rRNA inh, marked with its call; OD600 change, %; measured here: OD600 growth;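 optical density of the mix in the first replicate; 0 = DMSO median and -100 = no signal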
Ecoli rRNA inh RFP – second read-out of Ecoli rRNA inh, no call of its own (marks repeat the call); RFP signal change, %; measured here: RFP humanized mutant strains;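 first replicate; 0 = DMSO median and -100 = no signal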
Active calls of the source: *; i = inactive; x = no result given; + = active, no number.

The opening 5 records as a preview:
FGF22 binding	Ecoli rRNA inh	Ecoli rRNA inh OD600	Ecoli rRNA inh RFP	canonical_smiles
i	2.4	-0.9	1.8	Cc1noc(C)c1S(=O)(=O)Nc1cccc2c1O[C@H](CN(C)S(=O)(=O)c1c(C)noc1C)[C@H](C)CN([C@@H](C)CO)C2=O
i	-5.6	-5.0	1.7	C[C@@H]1CN([C@@H](C)CO)C(=O)c2cccc(NC(=O)Nc3ccc4c(c3)OCO4)c2O[C@H]1CN(C)Cc1ccc(C(F)(F)F)cc1
x	14.2	2.3	0.8	CCCCS(=O)(=O)N1C2=NC(C(=O)OCC)=C(C(=O)OCC)C3N(Cc4ccc(C#N)cc4)c4ccccc4[C@]23C[C@H]1C(=O)OC (stereo partly drawn)
i	-1.6	-1.9	-0.4	COCCNC(=O)C[C@@H]1CC[C@@H](NC(=O)NC2CCCC2)[C@H](CO)O1
i	2.9	7.7	2.2	C[C@H](CO)N1C[C@H](C)[C@H](CN(C)C(=O)Cc2ccccc2)Oc2cc(C#CC3CCCC3)ccc2S1(=O)=O

All compounds of this part, repeating the preview:
FGF22 binding	Ecoli rRNA inh	Ecoli rRNA inh OD600	Ecoli rRNA inh RFP	canonical_smiles
i	2.4	-0.9	1.8	Cc1noc(C)c1S(=O)(=O)Nc1cccc2c1O[C@H](CN(C)S(=O)(=O)c1c(C)noc1C)[C@H](C)CN([C@@H](C)CO)C2=O
i	-5.6	-5.0	1.7	C[C@@H]1CN([C@@H](C)CO)C(=O)c2cccc(NC(=O)Nc3ccc4c(c3)OCO4)c2O[C@H]1CN(C)Cc1ccc(C(F)(F)F)cc1
x	14.2	2.3	0.8	CCCCS(=O)(=O)N1C2=NC(C(=O)OCC)=C(C(=O)OCC)C3N(Cc4ccc(C#N)cc4)c4ccccc4[C@]23C[C@H]1C(=O)OC (stereo partly drawn)
i	-1.6	-1.9	-0.4	COCCNC(=O)C[C@@H]1CC[C@@H](NC(=O)NC2CCCC2)[C@H](CO)O1
i	2.9	7.7	2.2	C[C@H](CO)N1C[C@H](C)[C@H](CN(C)C(=O)Cc2ccccc2)Oc2cc(C#CC3CCCC3)ccc2S1(=O)=O
i	-1.2	0.8	-0.1	Cc1noc(C)c1NC(=O)Nc1ccc2c(c1)C(=O)N([C@@H](C)CO)C[C@H](C)[C@H](CN(C)C(=O)NC1CCCCC1)OCCCC[C@H](C)O2
i	1.1	7.8	-0.9	COc1ccc(CNC(=O)C[C@H]2CC[C@H](NC(=O)Nc3ccc4c(c3)OCO4)[C@H](CO)O2)cc1
i	-0.4	3.9	-0.5	CC(C)NC(=O)N(C)C[C@H]1Oc2ccc(NC(=O)Cc3cn(C)c4ccccc34)cc2C(=O)N([C@@H](C)CO)C[C@@H]1C
i	-4.4	-7.7	7.6	C[C@H]1CN([C@@H](C)CO)C(=O)Cc2cc(NC(=O)CCCCCC(=O)Nc3ccccc3N)ccc2O[C@@H]1CN(C)Cc1ccc(C(F)(F)F)cc1
i	-4.8	-4.7	-2.9	N#C[C@H]1[C@H](c2ccc(-c3cccc(F)c3)cc2)[C@@H](CO)N1C(=O)c1cccnc1
i	0.7	-0.4	-2.6	Cc1noc(C)c1S(=O)(=O)Nc1ccc2c(c1)CC(=O)N([C@H](C)CO)C[C@@H](C)[C@@H](CN(C)S(=O)(=O)c1c(C)noc1C)O2
i	2.3	4.9	0.6	CCC(=O)N1[C@@H]2c3ccc(-c4ccccc4)c(=O)n3C[C@H]1[C@H](CO)[C@H]2C(=O)N1CCCCC1
i	0.8	-12.5	3.3	Cc1ccc(S(=O)(=O)Nc2ccc3c(c2)C(=O)N([C@@H](C)CO)C[C@@H](C)[C@@H](CN(C)Cc2ccc4c(c2)OCO4)O3)cc1
i	3.0	6.3	1.1	CC=Cc1ccc2n(c1=O)C[C@@H]1[C@@H](CO)[C@H](C(=O)NC3CCCC3)[C@H]2N1Cc1ccncc1 (mixture of isomers)
i	0.2	5.0	1.9	CC(C)NC(=O)N(C)C[C@@H]1OCCCC[C@H](C)Oc2ccc(NC(=O)Nc3cccc4ccccc34)cc2C(=O)N([C@H](C)CO)C[C@@H]1C
i	2.7	0.5	0.2	Cc1noc(C)c1NC(=O)Nc1ccc2c(c1)C(=O)N([C@@H](C)CO)C[C@H](C)[C@@H](CN(C)C(=O)Nc1ccc3c(c1)OCO3)O2
i	4.5	-0.5	-1.9	Cc1noc(C)c1S(=O)(=O)N(C)C[C@@H]1Oc2ccc(NC(=O)NC(C)C)cc2CC(=O)N([C@@H](C)CO)C[C@H]1C
i	-4.0	-1.4	-4.3	COc1ccc(S(=O)(=O)N(C)C[C@@H]2Oc3ccc(NC(=O)CCCCCC(=O)Nc4ccccc4N)cc3CC(=O)N([C@H](C)CO)C[C@H]2C)cc1
i	-3.3	0.9	-2.4	COc1ccc(S(=O)(=O)N(C)C[C@@H]2OCCCC[C@H](C)Oc3ccc(NS(=O)(=O)c4ccc(C)cc4)cc3C(=O)N([C@@H](C)CO)C[C@H]2C)cc1
i	4.5	3.8	-0.3	CNC[C@H]1Oc2ccc(NC(=O)Cc3cn(C)c4ccccc34)cc2CC(=O)N([C@H](C)CO)C[C@@H]1C
i	-12.2	-7.5	2.6	C[C@H](CO)N1C[C@H](C)[C@@H](CN(C)C(=O)Cc2ccccc2)Oc2ncc(-c3ccc(F)cc3)cc2C1=O
i	-1.9	2.1	3.4	C[C@@H]1CN([C@@H](C)CO)C(=O)c2cc(NS(=O)(=O)c3ccc(F)cc3)ccc2O[C@@H](C)CCCCO[C@H]1CN(C)S(=O)(=O)c1cn(C)cn1
i	3.4	8.4	-3.8	O=C(NC[C@H]1[C@@H](c2ccccc2)[C@@H](CO)N1C(=O)Cc1cccnc1)C1CC1
i	0.5	7.5	1.4	O=C(C[C@H]1CC[C@H]2[C@@H](COC[C@@H](O)CN2C(=O)c2ccccc2F)O1)N1CCN(c2ccccc2)CC1
i	0.7	0.4	0.0	C[C@@H]1CCCCO[C@H](CN(C)C(=O)Nc2ccc(F)cc2)[C@H](C)CN([C@@H](C)CO)C(=O)c2cc(NC(=O)Nc3ccccc3)ccc2O1
i	0.4	15.9	-0.3	COCC(=O)N1CC[C@@H]2[C@H](CO)Nc3ccc(-c4cccc(C(=O)N(C)C)c4)cc3[C@@H]21
i	-0.9	-1.3	-2.9	C[C@H](CO)N1C[C@H](C)[C@@H](CN(C)C(=O)c2ccccn2)Oc2ncc(-c3ccccc3F)cc2C1=O
i	-3.5	3.0	1.1	COc1ccc2c3c([nH]c2c1)[C@H](CO)N(C(=O)c1ccc(F)cc1)CC31CCN(C(=O)CC2CC2)CC1
i	0.2	1.3	1.2	CN(C)CC(=O)Nc1ccc2c(c1)[C@@H]1C[C@@H](CC(=O)NCc3ccc4c(c3)OCO4)O[C@@H](CO)[C@@H]1O2
i	6.5	-9.0	8.0	CC(C)CC#Cc1cnc2c(c1)C(=O)N([C@H](C)CO)C[C@H](C)[C@@H](CN(C)Cc1ccc(F)cc1)O2
i	-3.6	-9.8	12.3	COc1ccc(CN(C)C[C@@H]2OCCCC[C@@H](C)Oc3ccc(NC(=O)Nc4ccc(C(F)(F)F)cc4)cc3C(=O)N([C@H](C)CO)C[C@H]2C)cc1
i	-2.5	2.7	2.2	C[C@@H]1CN([C@H](C)CO)C(=O)Cc2cc(NC(=O)Nc3ccc(F)cc3)ccc2O[C@@H]1CN(C)C(=O)Nc1ccccc1
i	-8.1	-14.3	5.5	O=C(Nc1ccc(Cl)cc1)N[C@H]1CC[C@@H](CCNS(=O)(=O)c2ccccc2F)O[C@@H]1CO
i	0.7	-4.2	0.6	O=C(C[C@@H]1C=C[C@H](NC(=O)CCN2CCCCC2)[C@H](CO)O1)NCc1ccc(Cl)c(Cl)c1
i	-22.7	-58.3	23.5	C/C=C/c1ccc2c(c1)O[C@@H](CN(C)Cc1ccccc1)[C@@H](C)CN([C@H](C)CO)S2(=O)=O
i	1.7	8.6	2.1	Cc1noc(C)c1NC(=O)N(C)C[C@@H]1Oc2c(NC(=O)NC3CCCCC3)cccc2C(=O)N([C@@H](C)CO)C[C@H]1C
i	-0.7	7.2	-4.7	O=C(C[C@H]1CC[C@H]2[C@@H](COC[C@H](O)CN2C(=O)C2CC2)O1)NCc1ccncc1
i	0.5	-4.6	1.6	C[C@@H]1CCCCO[C@@H](CN(C)C(=O)NC2CCCCC2)[C@H](C)CN([C@H](C)CO)C(=O)c2cc(NS(=O)(=O)c3ccc(F)cc3)ccc2O1
i	-3.9	1.3	-4.5	Cc1ccc(S(=O)(=O)N(C)C[C@H]2OCCCC[C@H](C)Oc3ccc(NC(=O)Nc4cccc5ccccc45)cc3C(=O)N([C@H](C)CO)C[C@@H]2C)cc1
i	-0.6	6.4	-0.8	C[C@H](CO)N1C[C@H](C)[C@H](CN(C)Cc2ccncc2)Oc2c(NC(=O)c3cnccn3)cccc2C1=O
i	6.0	2.1	-2.1	Cc1noc(C)c1NC(=O)N(C)C[C@H]1Oc2ncc(C#CCC(C)C)cc2C(=O)N([C@@H](C)CO)C[C@@H]1C
i	3.6	2.9	-1.7	COc1ccc(NC(=O)N(C)C[C@@H]2Oc3ccc(NS(=O)(=O)c4cn(C)cn4)cc3CC(=O)N([C@H](C)CO)C[C@@H]2C)cc1
i	0.8	0.5	0.4	C[C@@H]1CN([C@@H](C)CO)C(=O)Cc2cc(NC(=O)C3CC3)ccc2O[C@@H]1CN(C)C(=O)Nc1ccc2c(c1)OCO2
i	4.3	7.2	-1.6	C[C@@H]1CN([C@H](C)CO)C(=O)c2cccc(NC(=O)c3nc4ccccc4s3)c2O[C@@H]1CN(C)Cc1ccc(-c2ccccc2)cc1
i	0.0	-5.3	0.4	COc1ccc(NC(=O)N(C)C[C@@H]2OCCCC[C@H](C)Oc3ccc(NC(=O)NC(C)C)cc3C(=O)N([C@H](C)CO)C[C@@H]2C)cc1
i	8.7	12.6	0.9	COc1ccccc1C#Cc1cnc2c(c1)C(=O)N([C@@H](C)CO)C[C@H](C)[C@H](CN(C)C(=O)CN(C)C)O2
i	3.0	7.5	-1.1	COc1cccc(S(=O)(=O)N(C)C[C@H]2Oc3cc(C4=CCCC4)ccc3S(=O)(=O)N([C@H](C)CO)C[C@@H]2C)c1
i	1.3	0.2	-1.3	CO[C@@H]1CC[C@H]2CCN(C)C(=O)[C@H](C)[C@H](OC)CN(C)C(=O)c3cccc(C#N)c3OC[C@@H]1O2
i	0.6	-1.7	2.6	O=C(C[C@H]1C[C@H]2c3cc(NC(=O)CC4CC4)ccc3O[C@H]2[C@H](CO)O1)NCc1ccncc1
i	1.5	8.8	-0.7	COCC(=O)N[C@@H]1CC[C@H](CC(=O)N2CCCCC2)O[C@H]1CO
i	1.2	5.6	-0.3	CCCN(C)C[C@H]1Oc2cc(-c3cccnc3)ccc2S(=O)(=O)N([C@H](C)CO)C[C@H]1C
i	-10.5	-19.1	9.7	C[C@H]1CN([C@@H](C)CO)C(=O)c2cc(-c3cccc(F)c3)cnc2O[C@@H]1CN(C)S(=O)(=O)c1cccc(F)c1
i	-0.2	1.2	-2.4	CC(=O)N1CC2(C1)[C@H](c1ccc(-c3ccc(C#N)cc3)cc1)[C@@H](CO)N2C(=O)C1CC1
i	2.2	2.2	-0.8	CNC[C@@H]1Oc2cc(C#CCN(C)C)ccc2S(=O)(=O)N([C@@H](C)CO)C[C@H]1C
i	2.8	4.1	3.5	COc1ccc(CN(C)C[C@H]2OCCCC[C@@H](C)Oc3ccc(NC(=O)Nc4c(C)noc4C)cc3C(=O)N([C@H](C)CO)C[C@H]2C)cc1
i	-2.4	7.2	-1.3	C[C@@H]1CN([C@@H](C)CO)S(=O)(=O)c2ccc(/C=C/c3ccccc3)cc2O[C@@H]1CN(C)C(=O)c1ccccc1
i	-4.2	-6.4	-0.5	COc1ccc(S(=O)(=O)Nc2ccc3c(c2)C(=O)N([C@@H](C)CO)C[C@H](C)[C@@H](CN(C)S(=O)(=O)c2cn(C)cn2)OCCCC[C@H](C)O3)cc1
i	-18.4	-50.4	1.6	N#C[C@H]1[C@@H](c2ccc(-c3ccccc3F)cc2)[C@H](CO)N1C(=O)c1ccccn1
i	1.4	0.1	-1.7	O=C(C[C@@H]1C[C@H]2c3cc(NC(=O)c4cccnc4)ccc3O[C@H]2[C@@H](CO)O1)NCc1cccnc1
i	7.4	4.6	-3.3	C[C@@H]1CN([C@@H](C)CO)S(=O)(=O)c2ccc(-c3cncnc3)cc2O[C@@H]1CN(C)C(=O)Cc1cccnc1

Carrying on:
FGF22 binding	Ecoli rRNA inh	Ecoli rRNA inh OD600	Ecoli rRNA inh RFP	canonical_smiles
i	2.8	-0.4	-0.9	CN(C)C(=O)C[C@@H]1CC[C@H]2[C@@H](COc3ccc(NC(=O)c4cnccn4)cc3C(=O)N2C)O1
i	3.8	9.4	0.4	COC(=O)C[C@H]1CC[C@@H]2[C@H](COC[C@H](O)CN2C(=O)Nc2ccccc2OC)O1
+	-4.4	-6.0	-2.3	Cc1ccc(S(=O)(=O)N[C@H]2C=C[C@@H](CC(=O)N3CCc4ccccc4C3)O[C@@H]2CO)cc1
i	-3.6	-0.6	3.7	Cc1noc(C)c1S(=O)(=O)Nc1ccc2c(c1)C(=O)N([C@H](C)CO)C[C@H](C)[C@@H](CN(C)S(=O)(=O)c1c(C)noc1C)OCCCC[C@H](C)O2
i	-2.5	-0.5	0.3	CC(C)NC(=O)N(C)C[C@H]1OCCCC[C@H](C)Oc2ccc(NC(=O)Nc3ccc4c(c3)OCO4)cc2C(=O)N([C@H](C)CO)C[C@@H]1C
i	-2.3	3.8	-3.3	CCC(=O)N1[C@H](CO)[C@H](c2ccccc2-c2cccc(C)c2)[C@@H]1C#N

These rows are one share of the data; the hit share may differ from the screen's.
